High-throughput results from PubChem.
ClpP mod: qHTS Assay for Activators of ClpP; ATP-dependent Clp protease proteolytic subunit (Bacillus subtilis (strain 168)), P80244; purified B. subtilis ClpP, FRET peptide cleavage, 20 min; Potency, µM (highest dose often 57.5 µM), without a hit: top-dose activity change, negative = active; actives 1.9% (n = 340,000); active = well fitted falling curve with a large enough effect; inconclusive = small, poorly fitted or top-dose-only effect; inactive = no such curve, though single readings can be large or run the other way; note: the source files actives as falling curves though it sought activators and does not explain the sign; nearly all actives have a fitted effect of over 65% in size; many hits overshoot -100%
Target sequence (P80244 whole entry, looked up): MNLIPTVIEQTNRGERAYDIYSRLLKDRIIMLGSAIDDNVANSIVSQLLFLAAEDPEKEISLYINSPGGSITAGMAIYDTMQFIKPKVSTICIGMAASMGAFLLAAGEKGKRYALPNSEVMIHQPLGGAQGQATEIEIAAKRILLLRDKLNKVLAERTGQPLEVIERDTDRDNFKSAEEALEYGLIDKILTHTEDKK
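Purified B. subtilis ClpP, 10 microg/mL final in Tris/HCl pH8 with KCl, BSA, glycerol and Tween-20, cleaved an Abz/nitrotyrosine-quenched decapeptide. Fluorescence (ex 320, em 430) was read at 0 and 20 min at room temperature. Delta was normalized to 5.8 microM ADEP and DMSO/no-enzyme controls.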
Starred values were filed as active, the others as inactive; & = joins results of further samples. Potency is the fitted concentration of half-maximal effect. These rows are one share of the data, so the mix of outcomes need not match the whole.

CC(C)N1CCCC(C)(C(=O)Nc2ccccc2)C1 (stereo not drawn) was read as ClpP mod 0.6%.
Screening CCOC(=O)[C@]12CCC=C1N(Cc1ccc(Cl)cc1Cl)C(=O)[C@H](CC(=O)NCC1CCCCC1)C2 returned ClpP mod 0.3%.
For COc1cc2nc(N3CCCN(C)CC3)nc(N)c2cc1OC the results were ClpP mod 3.5%.
CC1Cc2[nH]c(=S)[nH]c(=O)c2C(c2ccc(C(C)C)cc2)O1 (stereo not drawn) was read as ClpP mod -2.6%.
Screening COc1cccc(C(NC(C)=O)c2nc(-c3ccccc3C)cs2)c1 (stereo not drawn) returned ClpP mod 1.4%.
Screening COCCCN1C(=O)C(CC(=O)NC(c2ccccc2)c2ccccc2)CC(C(=O)N(C(C)C)C(C)C)=C1C (stereo not drawn) returned ClpP mod -2.6%.
`COc1cc(-c2cnc3c(NC(C)=O)cc(-c4ccccc4CN(C)C)cn23)cc(OC)c1OC` gave ClpP mod 4.8%.
`CCN(CC)C(=O)c1cccc(-c2csc(C(O)c3cccc(Cl)c3)n2)c1` (stereo not drawn) gave ClpP mod -2.0%.
For CNc1cc(-c2ccc(OC)nc2)ncn1 the results were ClpP mod 4.6%.
For C=CCOc1cccn2c(N(C=O)Cc3ccc(OC)cc3)c(CC)nc12 the results were ClpP mod -0.5%.
Screening Cc1cccc(C)c1-n1nnnc1C1c2ccccc2C(=O)N1CCc1ccc(O)cc1 (stereo not drawn) returned ClpP mod -0.2%.
`c1cnn2c(-c3ccc4c(c3)CCO4)cnc2c1` gave ClpP mod -2.7%.
Screening CCCC(=O)N1CCCC1(C)C(=O)Nc1cccc(OC(C)C)c1 (stereo not drawn) returned ClpP mod -1.0%.
Cc1ccc(NC(=O)C2(C)CCN2Cc2csc3ccccc23)cc1 (stereo not drawn) was read as ClpP mod -3.8%.
Screening CCCN1CNc2c(c(=O)[nH]c(=S)n2CCc2ccc(C)c(C)c2)C1 returned ClpP mod -4.6%.
CSc1ccc(C(O)c2ncc(-c3ccc(F)cc3)[nH]2)cc1 (stereo not drawn) was read as ClpP mod -1.6%.
For CCCCC[C@H](C)N1C[C@H](COCc2ccccc2)Oc2cc(N3CCC[C@@H]3COC)ccc2S1(=O)=O the results were ClpP mod -5.9%.
Screening CCCC(=O)N1CCC1(C)C(=O)NS(=O)(=O)c1cccc(C)c1 (stereo not drawn) returned ClpP mod 1.6%.
Cc1ccnc2ccccc12 was read as ClpP mod -2.2%.
Screening O=C(Nc1ccccc1)c1cc(C2CCCN(C(=O)C/C=C/c3ccccc3)C2)on1 (stereo not drawn) returned ClpP mod -0.5%.
CS(=O)(=O)c1ccccc1NC(=O)COc1ccccc1C(=O)Nc1ccccc1 was read as ClpP mod -3.5%.
For CC(=O)Nc1ccc(-c2ccnc3c2CC(C(=O)NCC2CC2)O3)cc1 (stereo not drawn) the results were ClpP mod 5.6%.
`CCOC(=O)[C@]12CCCC=C1N(Cc1cccc3ccccc13)C(=O)[C@H](CC(=O)N1CCN(C(=O)C3CC3)CC1)C2` gave ClpP mod 0.4%.
O=C(O)c1c(Br)c(Br)c(Br)c(Br)c1C1c2ccc(O)cc2Oc2cc(O)ccc21 was read as ClpP mod -4.6%.
Screening COc1cc(OC)nc(C(NC(=O)C2CCN(Cc3ccc(Oc4ccccc4)cc3)CC2)c2ccccc2C)n1 (stereo not drawn) returned ClpP mod -1.1%.
For CCCN1CNc2c(c(=O)[nH]c(=S)n2CCc2ccc3c(c2)OCCO3)C1 the results were ClpP mod -0.9%.
`COc1ccc(-c2coc3c(C(=O)NCCN(C)C)cccc23)c(C)c1` gave ClpP mod -1.8%.
COc1ccc(C(C)=O)cc1CC1(C)C(=O)Nc2ccc(-c3cccc(C(F)(F)F)c3)cc21 (stereo not drawn) was read as ClpP mod -3.0%.
For CC1(C(=O)NS(=O)(=O)c2ccc(F)cc2F)CCN1C(=O)CC1CC1 (stereo not drawn) the results were ClpP mod 0.0%.
Cc1cccc(N(C)c2cc(-c3ccc(F)cc3)nc3ccnn23)c1 was read as ClpP mod -28%.
OC[C@@H]1CN(Cc2ccc(F)cc2)C[C@H](n2cnc3c(Nc4ccccc4)ncnc32)O1 was read as ClpP mod -17%.
For CCC(c1nnnn1-c1ccc2c(c1)OCCO2)N1CCN(C/C=C/c2ccccc2)CC1 (stereo not drawn) the results were ClpP mod 0.4%.
Screening Cc1ccc(C(NC(=O)C2CCN(CCCOc3ccccc3)CC2)c2ccccn2)cc1 (stereo not drawn) returned ClpP mod 0.2%.
CSCCNC(=O)C1(C)CCN1C(=O)c1ccc(C(C)(C)C)cc1 (stereo not drawn) was read as ClpP mod 4.0%.
Screening CN(C)CCNc1cccc2sc3ccc(O)cc3c(=O)c12 returned ClpP mod -3.5%.
CCCN1CNc2c(c(=O)[nH]c(=S)n2CCc2cc(C)cc(C)c2)C1 was read as ClpP mod -4.7%.
For NC(CO)c1csc(NC(=O)Nc2ccccc2Cc2ccccc2)n1 (stereo not drawn) the results were ClpP mod -0.1%.
CC(C)C[C@H]1CN(CCCC[C@H]2CNC(=O)C(=O)N2CCC2CCCCC2)C(=O)C(=O)N1CCC1CCCCC1 was read as ClpP mod 1.5%.
`CC1(C(=O)NS(=O)(=O)C2CC2)CCN(C(=O)c2ccc(F)c(Cl)c2)C1` (stereo not drawn) gave ClpP mod -2.0%.
Screening CC(C)[C@@H]1Cc2[nH]n(C)c(=O)c2[C@H](c2ccc(F)cc2)O1 returned ClpP mod -0.2%.

Two successive records out of the list so far, for reference:
CCCN1CNc2c(c(=O)[nH]c(=S)n2CCc2cc(C)cc(C)c2)C1 was read as ClpP mod -4.7%.
For NC(CO)c1csc(NC(=O)Nc2ccccc2Cc2ccccc2)n1 (stereo not drawn) the results were ClpP mod -0.1%.

Other results:
`CCCc1nc2ccccc2n1C(CC)C(=O)NC(C)(C)C` (stereo not drawn) gave ClpP mod -2.2%.
`COc1ccc(NC(=O)c2cc(-c3ccc(F)cc3OC)n[nH]2)c(C)c1` gave ClpP mod -1.5%.
Screening CC(=O)C(=Cc1ccccc1)c1ccccc1 returned ClpP mod 1.6%.
Screening CCCC(=O)N1CCC1(C)C(=O)Nc1ccccc1-c1ccccc1 (stereo not drawn) returned ClpP mod -4.4%.
`O=C(O)c1cccc(-c2csc(C(O)c3ccc(F)cc3)n2)c1` (stereo not drawn) gave ClpP mod 0.5%.
Screening CNc1ncnc2c1ncn2[C@H]1CN(CCOC)C[C@@H](CO)O1 returned ClpP mod -0.5%.
For O=Cc1cccc(C=O)c1 the results were ClpP mod -0.8%.
For CSc1ccc(CN2CCC(C)(Oc3ccccc3C)C2)cc1 (stereo not drawn) the results were ClpP mod 0.0%.
For CCOC(=O)[C@]12CCCC=C1N(Cc1ccc(Cl)cc1Cl)C(=O)[C@H](CC(=O)NCc1ccc(C)o1)C2 the results were ClpP mod -0.8%.
`COc1ccc(C(=O)c2[nH]c(N)c(C(=O)NCCc3c[nH]c4ccccc34)c2-c2ccc(Br)cc2)cc1` gave ClpP mod -2.9%.
Screening CCOC(=O)CC1(C)Oc2ccccc2N1S(=O)(=O)c1ccc(C)cc1 (stereo not drawn) returned ClpP mod 1.1%.
Cc1ccc(C)c(C(O)c2ncc(-c3ccc(C(F)(F)F)cc3)[nH]2)c1 (stereo not drawn) was read as ClpP mod -12%.
For CCOC(=O)C1(C)CCCN(C(=O)c2ccc3ccccc3c2)C1 (stereo not drawn) the results were ClpP mod -2.5%.
Cc1ccc(Nc2nc(NCc3ccco3)nc3nccnc23)c(C)c1 was read as ClpP mod -0.3%.
Screening Cc1ccnc2ccc(N)cc12 returned ClpP mod -13%.
For OC(c1ccc(-c2ccccc2)cc1)c1ncc(-c2cccc(F)c2)[nH]1 (stereo not drawn) the results were ClpP mod -8.9%.
For CCCS(=O)(=O)NC(=O)C1(C)CCN(C(=O)c2cccc3ccccc23)C1 (stereo not drawn) the results were ClpP mod -0.6%.
COC(=O)c1cc2c([nH]c1=O)CC(c1ccccc1)CC2=O (stereo not drawn) was read as ClpP mod 4.2%.
CCOC(=O)[C@]12CCC=C1N(Cc1ccc3c(c1)OCO3)C(=O)[C@H](CC(=O)NCc1cccc3ccccc13)C2 was read as ClpP mod -17%.
`O=C(NC1CCCCC1)C(c1ccncc1)n1c(=O)c(-c2cc3ccccc3[nH]2)nc2ccccc21` (stereo not drawn) gave ClpP mod inconclusive.
Cc1ccc(CC2(C)C(=O)Nc3c(Cl)ccc(Cl)c32)cc1 (stereo not drawn) was read as ClpP mod -0.2%.
`Cc1cc(C)cc(CC(=O)N2CCC2(C)C(=O)NS(=O)(=O)c2ccccc2C)c1` (stereo not drawn) gave ClpP mod 0.1%.
`COC(=O)c1cnc(Nc2nc(C(N)Cc3ccc(Cl)cc3)cs2)nc1C(F)(F)F` (stereo not drawn) gave ClpP mod -0.9%.
`Clc1ccc2nc(-c3ccco3)c(Cc3ccsc3)n2c1` gave ClpP mod 5.0%.
Screening CCc1ccc(N2C=C(C(=O)OC)C(c3ccccc3F)C(C#N)=C2N)cc1 (stereo not drawn) returned ClpP mod -13%.
For CN(N=O)c1ccc(/C=C/c2ccccc2)cc1 the results were ClpP mod -2.0%.
Screening COc1cc2nc(N3CCCN(C)CC3)nc(NC3CCN(Cc4ccccc4)CC3)c2cc1OC returned ClpP mod 4.1%&4.0%.
For CCOC(=O)[C@]12CCC=C1N(Cc1ccco1)C(=O)[C@H](CC(=O)N1CCN(C(=O)C3CC3)CC1)C2 the results were ClpP mod 1.9%.
CCNC(=O)C1(C)CCN(C(=O)c2cccc(OC(C)=O)c2C)C1 (stereo not drawn) was read as ClpP mod 0.6%.
For CCc1nc2ccc(C(=O)N3CCCC(C(N)=O)C3)cn2c1N(C)Cc1ccc(OC)cc1 (stereo not drawn) the results were ClpP mod 1.5%.
`CCCCCCCCN1C(=O)[C@H](CC(=O)NCCCN2CCCC2=O)C[C@@]2(C(=O)OC)CCCCC=C12` gave ClpP mod -2.3%.
Screening CN1CCN(c2cccc3c2S(=O)(=O)N[C@H](Cc2ccccc2)CO3)CC1 returned ClpP mod 2.3%.
Screening CCOC1=C2[C@H](c3ccc(CC)cc3)N(S(=O)(=O)c3ccc(C)cc3)C[C@H]2C(C#N)(C#N)C(C#N)(C#N)C1 returned ClpP mod inconclusive.
For Cc1cc(C)cc(C(O)c2ncc(-c3ccccc3)[nH]2)c1 (stereo not drawn) the results were ClpP mod -0.6%.
Screening COc1ccc(OC(F)(F)F)cc1CC1(C)C(=O)Nc2cccc(Cl)c21 (stereo not drawn) returned ClpP mod 1.6%.
For Nc1ccc(/C=C/c2ccc3cccnc3c2)cc1 the results were ClpP mod -3.4%.
For COc1ccc(SC[C@H](C)CN2CC[C@H](O)CCC2=O)cc1 the results were ClpP mod -1.0%.
Screening Cc1cccc(C)c1NC(=O)C1(C)CSCC(=O)N1Cc1ccco1 (stereo not drawn) returned ClpP mod -0.3%.
Screening CCc1nc2ccc(C(=O)N(C)C(C)C)cn2c1N(CC)Cc1cccc(Br)c1 returned ClpP mod -3.7%.
For Cn1c(NCc2ccccc2F)nc2cc(-c3ccsc3)sc2c1=O the results were ClpP mod inconclusive.

Structural class: the entries above with bromine (3)
O=C(O)c1c(Br)c(Br)c(Br)c(Br)c1C1c2ccc(O)cc2Oc2cc(O)ccc21 was read as ClpP mod -4.6%.
`COc1ccc(C(=O)c2[nH]c(N)c(C(=O)NCCc3c[nH]c4ccccc34)c2-c2ccc(Br)cc2)cc1` gave ClpP mod -2.9%.
Screening CCc1nc2ccc(C(=O)N(C)C(C)C)cn2c1N(CC)Cc1cccc(Br)c1 returned ClpP mod -3.7%.

Continued:
Screening COc1cccc(C(O)c2nc(-c3cncnc3)cs2)c1 (stereo not drawn) returned ClpP mod -3.8%.
Screening CCc1nc2c(OCCOc3ccc(F)cc3)cccn2c1N(C)C(=O)c1ccc(OC)cc1 returned ClpP mod -1.1%.
For COc1ccc(CN2C(=O)C(CC(=O)NCCCCc3ccccc3)CC(C(=O)N3CCCCCC3)=C2C)cc1 (stereo not drawn) the results were ClpP mod 0.7%.
`CCOC(=O)C[C@@H]1OC[C@H](CO)N1S(=O)(=O)c1ccc(C)cc1` gave ClpP mod -3.0%.
Screening COc1cccc(C(C)(O)c2nc(-c3ccccc3)cs2)c1 (stereo not drawn) returned ClpP mod -1.7%.
O=C(CC[C@H]1O[C@@H](n2cnc3c(NC(=O)c4ccccc4)ncnc32)[C@H](O)[C@@H]1O)NCc1ccco1 was read as ClpP mod 0.3%.
`CC(C)Oc1cccc(NC(=O)C2(C)CCN2C(=O)C(C)C)c1` (stereo not drawn) gave ClpP mod 0.6%.
For O=C1[C@@H](c2ccccc2)CC[C@@H]2C=CC[C@H]3CCN1[C@@H]32 the results were ClpP mod 2.2%.
Cc1ccc(C(=O)NCC(=O)OCC(=O)c2ccc3ccccc3c2)cc1 was read as ClpP mod inconclusive.

Two compounds picked at random from those above:
Screening COc1cccc(C(O)c2nc(-c3cncnc3)cs2)c1 (stereo not drawn) returned ClpP mod -3.8%.
`CC(C)Oc1cccc(NC(=O)C2(C)CCN2C(=O)C(C)C)c1` (stereo not drawn) gave ClpP mod 0.6%.

Part of the list above in order of heavy-atom count, rising:
Screening COc1cccc(C(O)c2nc(-c3cncnc3)cs2)c1 (stereo not drawn) returned ClpP mod -3.8%.
`CC(C)Oc1cccc(NC(=O)C2(C)CCN2C(=O)C(C)C)c1` (stereo not drawn) gave ClpP mod 0.6%.
For COc1ccc(CN2C(=O)C(CC(=O)NCCCCc3ccccc3)CC(C(=O)N3CCCCCC3)=C2C)cc1 (stereo not drawn) the results were ClpP mod 0.7%.
